Vaccinia mCherry: inhibitors of vaccinia virus infection (mCherry reporter signal) | Potency, µM (series often up to 36.5 µM), for the others: at the top dose activity change, negative = inhibition, actives largely listed as inhibitors | AID 720579 | Vaccinia virus mCherry reporter infection, fluorescence; about a quarter of the inactives have no number | 310,000 compounds, 0.63% hits; active = well fitted inhibition curve with a large enough effect; inconclusive = small, poorly fitted or top-dose-only effect; inactive = no such curve, though single readings can be large or run the other way; tested in A549 cells; further: nearly all actives have a fitted effect of over 35% in size; inactives centre near -10
Vaccinia Venus: vaccinia inhibition (Venus reporter); Vaccinia virus Venus reporter expression, fluorescence; Potency, µM (titrated, usually from 36.5 µM), for the others: at the highest dose activity change, negative = inhibition, hits mostly inhibitors; 330,000 compounds, 0.46% hits; AID 720580; active means well fitted inhibition curve with a large enough effect; inconclusive means small, poorly fitted or top-dose-only effect; inactive means no such curve, though single readings can be large or run the other way; tested in A549 cells; further: nearly all actives have a fitted effect of over 30% in size; inactives centre near -10
* = called active by the depositor; i = inactive; ? = inconclusive; . = no result given; & = joins results of further samples; [ ] = remark or other dose. On the % scale 0 is the no-effect control and ±100 the full control effect; potency means the concentration at half of the fitted maximal effect.

SMILES | Vaccinia mCherry | Vaccinia Venus
NC(=O)SCC(=O)Nc1ccc(Cl)c(Cl)c1 | -3.8% | -15.0%
O=C(CSc1ncc(CO)n1Cc1ccc(F)cc1)NCc1ccco1 | i | -1.1%
COc1ccc(OC)c(/C=C2\SC(=S)N(N3CCOCC3)C2=O)c1 | i | -5.0%
O=C(CSc1ccc(-c2nc3ccccc3[nH]2)cn1)Nc1ccc2c(c1)OCCO2 | -9.7% | -24.5%
O=C(CSc1nnc(CCc2ccccc2)n1-c1ccc(Cl)cc1)c1ccccc1 | i | -18.8%
CCN(CC)CCn1c(=S)[nH]c2ccc(Cl)cc2c1=O | -4.3% | -9.8%
COc1ccc(OC)c(-c2cc(C(=O)N/N=C(\C)c3cccnc3)c3ccccc3n2)c1 | ? | -11.7%
CC(C)Cn1c(CN2C(=O)c3ccccc3C2=O)nc2ccccc2c1=O | . | -5.1%
COc1cccc(NC(=O)CCC(=O)N2Cc3ccccc3Oc3ncccc32)c1 | -15.0% | -8.4%
CC(=O)c1ccc(NC(=O)C2(c3ccccc3)CC2(Cl)Cl)cc1 (stereo not given) | i | -1.3%
COc1ccccc1-n1c(-c2ccc(F)cc2)coc1=O | -13.5% | -10.6%
Cc1cc(C)c(C)c(S(=O)(=O)NCCCn2ccnc2)c1C | i | -3.1%
COC1=CC(=O)OC(/C=C/c2ccccc2)C1 (stereo not given) | -28.2%[87.9 µM] | -13.0%
Cc1ccc2c(c1)-c1cc(C)ccc1C2=O | -1.9% | -3.9%
O=C(COC(=O)COc1ccc(Cl)cc1)NC1CCCCCC1 | -4.2% | -3.4%
COc1ccc(C(=O)N/N=C/c2ccc(OC)c(OS(=O)(=O)c3ccccc3)c2)cc1 | ? | -9.5%
CCCCc1nc2ccccc2n2c(-c3ccc(OC)cc3)c3c(=O)n(C)c(=O)n(C)c3c12 | -10.9% | -4.0%
O=[N+]([O-])c1cc(Br)c(O)c(/C=N/Nc2nc3ccccc3s2)c1 | ? | -20.2%
CCc1cccc(NC(=O)CSc2nnc(-c3cc4occc4n3C)n2-c2ccccc2C)c1 | -24.6% | -26.1%
Cc1noc(C)c1CSCC(=O)Oc1ccc(N(C)S(=O)(=O)c2ccc(Cl)cc2)cc1 | -12.2% | -9.3%
O=C(Nc1cccc(S(=O)(=O)N2CCCCCC2)c1)c1ccc2c(c1)OCO2 | -24.4% | ?
Cc1ccc(NNC(=O)c2c(F)cccc2Cl)cc1Cl | -18.9%[7.34 µM] | -0.3%[7.34 µM]
Cc1cc(CNC(=O)CC2C(=O)NCCN2Cc2ccccc2C(F)(F)F)on1 (stereo not given) | -3.2% | -14.4%
Cc1cccc(-c2nc(SCC(=O)Nc3cc(C)on3)c3c(=O)n(C)c(=O)n(C)c3n2)c1 | -0.8% | -0.8%
CCN(CC)CCNC(=O)c1ccc(CS(=O)(=O)c2ccccc2C)o1 | -10.9% | -10.3%
COc1cc(C(=O)Nc2cc(C)nn2-c2ccccc2)cc(OC)c1OC | -12.6% | -8.5%
O=c1[nH]c2ccccc2n2c(-c3ccccc3)nnc12 | -9.9% | -8.8%&-9.2%
Cc1cccc(C)c1-n1ncc(C(=O)NCc2ccc3c(c2)OCO3)c1C1CCN(C(=O)OC(C)(C)C)CC1 | -16.8% | ?
CC(C)c1ccc(NC(=O)c2ccc(CN3CC(=O)N4CCCCC4C3=O)cc2)cc1 (stereo not given) | i | -15.2%
Cc1ccc(Cn2ccn(CC(=O)Nc3ccccc3C(F)(F)F)c(=O)c2=O)cc1 | -8.0% | -2.5%
Cc1cc(C)cc(NC(=S)NCCCO)c1 | -13.3% | -3.5%
CN1CC(=O)Nc2ccc(Br)cc2C1=O | i | -12.6%
CCOc1ccccc1NC(=O)c1cccc(NC2=NC3CS(=O)(=O)CC3S2)c1 (stereo not given) | i | -19.7%
COCCCC1CCN(C(=O)C2CCC(=O)N(CCc3ccccc3)C2)CC1 (stereo not given) | i | -14.1%
COc1ccccc1NC(=O)C(=N\O)/C(C)=N/O | -11.1% | -3.3%
CSCCC(NC(=O)c1ccccc1Cl)C(=O)Nc1ccncc1 (stereo not given) | -8.4% | -11.2%
COC(=O)[C@H](CCSC)NC(=O)Cn1ccc(NC(=O)OCc2ccccc2)nc1=O | -14.1% | -11.4%
Cc1cccc(C2=NN(c3ccccc3)[C@H](CO)[C@H]2c2ccc(F)cc2)c1 | ? | -29.9%
Cc1ccc(C(=O)NC2CC(C)(C)NC(C)(C)C2)cc1S(=O)(=O)N1CCCCC1 | -14.2% | -1.5%
O=C(NC(=S)N1CCN(Cc2ccccc2)CC1)c1ccccc1 | -6.0% | -19.4%
Cc1ccc(C2=NN(Cc3nnc(-c4ccccc4)o3)C(=O)SC2)cc1 | -2.5% | -5.6%
O=C(NCCN1CCOCC1)c1ccc(CS(=O)c2ccccc2Cl)o1 (stereo not given) | 11.4%[7.34 µM] | 6.3%[7.34 µM]
CCOc1ccccc1NC(=O)CSc1nc2c(oc3ccccc32)c(=O)n1-c1ccc(F)cc1 | -4.4% | 8.1%
Cc1cccc(-c2noc(CN(C)C(=O)COc3ccccc3)n2)c1 | i | -11.3%
Fc1cccc(-c2cc3nc(-c4ccccc4)cc(N4CCC5(CC4)OCCO5)n3n2)c1 | . | -16.0%
C=CCn1c(=NC(=O)c2ccc(S(=O)(=O)N3CCc4ccccc4C3)cc2)sc2cc(S(N)(=O)=O)ccc21 | ? | -24.1%
CC1=CC(=NOC(=O)/C=C/c2ccccc2)C=C(C)C1=O | . | -2.1%
CC1(C)Cc2ccccc2C(NNC(=O)c2ccccc2)=N1 | i | -8.0%
O=C(CSc1ncccc1C(=O)O)NCc1ccc(F)cc1 | . | -11.2%
Cc1cc(=O)n2[nH]c(-c3ccccc3)cc2n1 | i | -12.5%
CCSC1(SCC)N=C(N)C2(C#N)C(c3ccccc3)NC(C)=CC12C#N (stereo not given) | . | 5.6%
CCOCC(=O)Nc1ccc(S(=O)(=O)N2CCOCC2)cc1 | 2.7% | 6.1%
Cc1ccc(SCCNC(=S)Nc2ccccc2)cc1 | . | ?
CC(C)N1CCC2(CC1)NC(CO)(CO)CO2 | -15.0% | -3.7%
O=C(O)c1ccc(S(=O)(=O)c2ccc3c(c2)C(=O)N(c2ccccc2[N+](=O)[O-])C3=O)cc1 | -5.9% | -4.9%
COC(=O)Cn1cc(C(=O)C(C)(C)C)c2ccccc21 | -2.3% | 2.7%
NCCCS(=O)(=O)O | -13.3% | -14.3%&-13.5%&-10.4%
CC(CCc1ccc(O)cc1)NCc1ccc(Br)cc1 (stereo not given) | -5.6% | -11.8%
Cc1sc2nc(SCC(N)=O)n(C)c(=O)c2c1C | -1.2% | ?
CCCCN(C)CCN1C(=O)C2C(C(=O)Nc3cccc(OC)c3)C3C=CC2(O3)C1C(=O)NC1CCCCC1C (stereo not given) | -14.3% | -23.7%

Going on with the list:
SMILES | Vaccinia mCherry | Vaccinia Venus
Cc1cc(Oc2ccc(Cl)cc2Cl)nc(C#N)n1 | ? | -29.6%
O=C1Nc2ccccc2C1=Nc1cccc(Cl)c1 | -1.3% | 1.4%
Cc1cccc(N2CCN(C(=O)[C@H](C)N3C(=O)C4CC=CCC4C3=O)CC2)c1C (stereo not given in full) | -12.8% | -5.7%
CCN1C(=O)c2ccc(C(=O)Nc3ncc(C)s3)cc2C1=O | -6.1% | -1.1%
O=C(CNC(=O)c1ccccn1)N/N=C/c1ccccc1 | . | -12.5%
Cc1cc(C)n2nc(C(=O)OCC(=O)N(CC(C)C)C3CCS(=O)(=O)C3)nc2n1 (stereo not given) | -7.7% | 7.9%
CCOc1ccc(CCNS(=O)(=O)c2cccc3nsnc23)cc1OCC | . | -2.3%
CC(C)(C)NC(=O)C(c1ccccc1)n1c(=O)c(-c2ccccc2)nc2ccccc21 (stereo not given) | -10.4% | -15.4%
Nc1cc2nc3ccccc3oc-2cc1=O | ? | ?
C(=C\c1ccccc1)/CN1CCN(C(c2ccnc3ccccc23)c2nnnn2-c2ccc3c(c2)OCCO3)CC1 (stereo not given) | -2.4% | -12.1%
CN(C)c1nc(N)c(C(=O)N=C(N)N)nc1Cl | -3.2% | -12.1%
CC(C)N(Cc1nccn1C)C(=O)c1cc(COc2ccc(-n3cncn3)cc2)on1 | -19.2% | -20.9%
O=C(O)c1cc(O)ccc1NC(=O)c1cccc2ccccc12 | -10.4% | -16.3%
Cc1ccc(NC(=O)c2ccc3nc(N4CCOCC4)sc3c2)c(Cl)c1 | -6.9% | -9.7%
COC(=O)c1sc(NC(=O)CSc2nc3nc(C)cc(C)n3n2)c(C(=O)OC)c1C | 0.5% | -4.1%
Cc1cccc(NC(=S)NNC(=O)c2ccccc2Br)c1 | i | -11.1%
COc1ccc(N2C(=O)CCC(C(=O)N3CCCCCC3)C2c2ccc(OC)c(OC)c2)cc1 (stereo not given) | -13.7% | -5.0%
C/C(=N\NC(=O)CC1N=C(Cc2ccccc2)NNC1=O)c1ccccc1 (stereo not given) | -10.7% | -2.8%
C/C(=N\NC(=O)c1ccc(Br)cc1)c1cccnc1 | i | -10.1%
CCN1CCCC1CNS(=O)(=O)c1ccc(Cl)c(C(F)(F)F)c1 (stereo not given) | -8.8% | -5.3%
CN(C)CCN=Cc1c(O)n(C2CCCCCC2)c(=O)[nH]c1=O | . | -2.9%
COc1ccccc1CNc1nc(NCC2CC2)nc2ccsc12 | -14.8% | -20.5%
CCC(C)(C)NC(=O)C(c1ccc(C)cc1)N(Cc1ccco1)C(=O)Cn1nnc2ccccc21 (stereo not given) | i | -18.4%
CCOC(=O)c1cnc2c(c(C)nn2CC)c1NCCN1CCOCC1 | -6.7% | -12.2%

Quoted at random: 2 compounds from above, in no set order.
SMILES | Vaccinia mCherry | Vaccinia Venus
COC(=O)c1sc(NC(=O)CSc2nc3nc(C)cc(C)n3n2)c(C(=O)OC)c1C | 0.5% | -4.1%
C/C(=N\NC(=O)CC1N=C(Cc2ccccc2)NNC1=O)c1ccccc1 (stereo not given) | -10.7% | -2.8%

Part of the list above in a different format.
Compound,Vaccinia mCherry,Vaccinia Venus
CC(C)(C)NC(=O)C(c1ccccc1)n1c(=O)c(-c2ccccc2)nc2ccccc21 (stereo not given),-10.4%,-15.4%
Nc1cc2nc3ccccc3oc-2cc1=O,?,?
C(=C\c1ccccc1)/CN1CCN(C(c2ccnc3ccccc23)c2nnnn2-c2ccc3c(c2)OCCO3)CC1 (stereo not given),-2.4%,-12.1%
CN(C)c1nc(N)c(C(=O)N=C(N)N)nc1Cl,-3.2%,-12.1%
CC(C)N(Cc1nccn1C)C(=O)c1cc(COc2ccc(-n3cncn3)cc2)on1,-19.2%,-20.9%
O=C(O)c1cc(O)ccc1NC(=O)c1cccc2ccccc12,-10.4%,-16.3%
Cc1ccc(NC(=O)c2ccc3nc(N4CCOCC4)sc3c2)c(Cl)c1,-6.9%,-9.7%
COC(=O)c1sc(NC(=O)CSc2nc3nc(C)cc(C)n3n2)c(C(=O)OC)c1C,0.5%,-4.1%
Cc1cccc(NC(=S)NNC(=O)c2ccccc2Br)c1,i,-11.1%
COc1ccc(N2C(=O)CCC(C(=O)N3CCCCCC3)C2c2ccc(OC)c(OC)c2)cc1 (stereo not given),-13.7%,-5.0%
C/C(=N\NC(=O)CC1N=C(Cc2ccccc2)NNC1=O)c1ccccc1 (stereo not given),-10.7%,-2.8%
C/C(=N\NC(=O)c1ccc(Br)cc1)c1cccnc1,i,-10.1%
CCN1CCCC1CNS(=O)(=O)c1ccc(Cl)c(C(F)(F)F)c1 (stereo not given),-8.8%,-5.3%
CN(C)CCN=Cc1c(O)n(C2CCCCCC2)c(=O)[nH]c1=O,.,-2.9%
COc1ccccc1CNc1nc(NCC2CC2)nc2ccsc12,-14.8%,-20.5%
CCC(C)(C)NC(=O)C(c1ccc(C)cc1)N(Cc1ccco1)C(=O)Cn1nnc2ccccc21 (stereo not given),i,-18.4%
CCOC(=O)c1cnc2c(c(C)nn2CC)c1NCCN1CCOCC1,-6.7%,-12.2%

More structures
SMILES | Vaccinia mCherry | Vaccinia Venus
CC(C)Cn1cc(NC(=O)NCc2ccccc2Cl)c2ccccc2c1=O | 4.2% | 0.5%
CCOC(=O)Cn1c(CCC(=O)O)ccc1-c1ccc(F)cc1 | 3.7% | -3.3%
CC(C)(C)Nc1c(-c2ccc(O)cc2)nc2ccc(Cl)cn12 | i | -17.1%
CSc1nc2ccccc2n1CC(=O)Nc1cc(C(F)(F)F)ccc1N1CCOCC1 | -1.1% | -15.9%
Cc1ccc2c(CSc3nnc4ccccn34)cc(=O)oc2c1C | -1.1% | -16.1%
COC(=O)c1sc2nc(N)c(C#N)cc2c1N | -6.0% | -7.9%
CCCc1cc(C(=O)Nc2cccc(C(C)=O)c2)no1 | i | 1.2%
COc1cc2c(cc1O)C[C@H]1NCCc3cc4c(c-2c31)OCO4 | -14.3% | ?
CCNC(=S)N(Cc1cc2cc(C)ccc2[nH]c1=O)C1CCCC1 | -15.9% | -19.6%
COc1ccc(Cl)cc1CN1C(=O)NC2(CCCCCC2)C1=O | -25.9% | -11.1%
Cc1cc(C)cc(NC(=O)c2c(C)nc3ccccn23)c1 | i | -19.3%
